Compound activity as filed in PubChem.
AID504770: growth inhibitors of E. coli YBA685 in a screen for V. cholerae RctB (chromosome II replication) inhibitors | E. coli YBA685 rctB-dependent plasmid, OD600 growth, 3 h; active compounds read low | z-score (no concentration beside the values) | 130,000 tested, 0.27% active;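 active means z-score under -2 on both plates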;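 further: wells of about 30 µL received 100 nL stock; score is relative to mean and SD of the test wells; the first replicate is given; strong numbers were not always called active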
CapD inh: blocks the Bacillus anthracis CapD enzyme | purified CapD enzyme, fluorescence intensity read-out; active compounds read low; some hits fall short of the stated cut | z-score (no concentration beside the values) | 140,000 tested, 0.23% active | AID 492967;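 active means z-score under -4 in either of two replicates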;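 further: stock transfer was 100 nL into about 40 µL; score is relative to mean and spread of the plate; one replicate is shown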
* = called active by the depositor; . = not tested or not shown; & = joins results of further samples.

SMILES	AID504770	CapD inh
CCOC(=O)N1CCN(C(=O)c2ccc3c(c2)NC(=O)C(CSCc2ccccc2F)N3)CC1 (stereo unspecified)	-0.4	16.7
Nc1nnc(SCC(=O)N2CCc3ccccc3C2)s1	-0.2	-0.685
COc1ccc(N2CCN(c3nc(C)nc4sc5c(c34)CCCC5)CC2)cc1	.	0.31
C=CCOc1ccccc1/C=N/NC(=O)C(CCSC)NC(=O)c1ccc(C(F)(F)F)cc1 (stereo unspecified)	.	-0.94
CCOC(=O)CSc1nc2c(c(=O)n1-c1ccccc1)SCC2	1.6	-1.04
CN(C)C(=O)COc1ccc(S(=O)(=O)c2ccc(OCC(=O)N(C)C)cc2)cc1	0.5	.
O=c1ccc2nncn2[nH]1	0.45	0.58
C#CCn1c(O)c(N=NC(=O)CNC(=O)c2ccccc2)c2ccccc21	0.6	-1.51

Given with values under each structure: part of the list above
Second line of a record: AID504770, CapD inh
> CCOC(=O)CSc1nc2c(c(=O)n1-c1ccccc1)SCC2
 : 1.6, -1.04
> CN(C)C(=O)COc1ccc(S(=O)(=O)c2ccc(OCC(=O)N(C)C)cc2)cc1
 : 0.5, .
> C#CCn1c(O)c(N=NC(=O)CNC(=O)c2ccccc2)c2ccccc21
 : 0.6, -1.51
> COc1ccc(N2CCN(c3nc(C)nc4sc5c(c34)CCCC5)CC2)cc1
 : ., 0.31
> CCOC(=O)N1CCN(C(=O)c2ccc3c(c2)NC(=O)C(CSCc2ccccc2F)N3)CC1 (stereo unspecified)
 : -0.4, 16.7

(cont.)
SMILES	AID504770	CapD inh
CCCOc1ccccc1NC(=O)C1CC(=O)n2c(nnc2-c2ccc(OC)cc2)S1 (stereo unspecified)	-0.35	.
C=C(C)C1CC=C(C)C(OC(=O)c2ccccc2C(=O)O)C1 (stereo unspecified)	1.45	-0.385
CCOC(=O)c1ccc(NC(=O)CCN2C(=O)/C(=C\C(C)=C\c3ccccc3)SC2=S)cc1	.	0.135
CC(=O)Oc1ccc(C2OCC3C(C)C=C(C)C2C3C)cc1 (stereo unspecified)	-0.45	28.8
C=C(C)Cc1c(C)nc(N2CCCC2)[nH]c1=O	-1.75	0.24
c1cn(CCCNc2ncnc3sc4c(c23)CCCCC4)cn1	-0.5	.
N#CCNC(=O)c1ccccc1Br	0.9	0.27
Cc1c(OCC(=O)OCc2ccccc2)ccc2c1oc(=O)c1ccccc12	0	37.9
Cc1ccc(C(=O)C(C)Sc2nncn2-c2ccccc2)cc1 (stereo unspecified)	-0.7	.
COc1ccccc1-c1nnc(NC(=O)c2ccc(S(=O)(=O)N3CC(C)OC(C)C3)cc2)o1 (stereo unspecified)	.	0.515
c1cc(CNCc2ccc3c(c2)OCO3)ccn1	-0.25	0.02
COCC(=O)NC(C)c1nc2ccccc2n1Cc1cc(C)ccc1C (stereo unspecified)	0	-0.015
CCN=c1scc(-c2ccco2)n1/N=C/c1ccsc1	0.25	.
COc1cccc(Cc2nnc(-c3snnc3C)o2)c1	-0.75	-0.78
CN(C)/C=C(\C#N)c1cccc(C(F)(F)F)c1	0.95	-0.515
COc1cc2nc(-c3cccs3)oc(=O)c2cc1OC	2.3	0.775

3 records picked at random from those above, as already listed:
SMILES	AID504770	CapD inh
CN(C)/C=C(\C#N)c1cccc(C(F)(F)F)c1	0.95	-0.515
COc1cccc(Cc2nnc(-c3snnc3C)o2)c1	-0.75	-0.78
Cc1ccc(C(=O)C(C)Sc2nncn2-c2ccccc2)cc1 (stereo unspecified)	-0.7	.

New compounds follow.
SMILES	AID504770	CapD inh
CN1CCC(=NNC(=O)c2ccccc2)CC1	-0.5	0.55
OCCn1c(CNc2cc(Cl)ccc2N2CCCCC2)nc2ccc(Cl)cc21	1	.
CCOC(=O)C1=C(CSc2ccc(Cl)cc2)NC(=O)NC1c1cc(C)ccc1C (stereo unspecified)	-0.6	-0.435
COc1ccc(-c2cc(CCCC(=O)N3CCN(c4ccc(OC)cc4)CC3)no2)cc1	1.25	0.73
CC(C)C(Sc1nncn1C(C)C)C(=O)NC(N)=O (stereo unspecified)	0.05	.
C=CCNC(=O)CSc1nccc(-c2sc3sc(Br)c(C)c3c2C)n1	-0.3	1.96
CCOC(=O)c1c(C)n(C)c2c1cc(OC(=O)c1ccccc1Cl)c1ccccc12	.	-0.045
CCCCNc1nc(Nc2ccc(Cl)cc2)nc(N2CCOCC2)n1	.	0.06
O=C(Nc1cccc(C(F)(F)F)c1)c1cccc(F)c1	-0.55	-0.865
O=C(O)/C=C/c1cn(CCC(=O)O)nc1-c1ccccc1	-1.2	.
CCSC1=C(C#N)C(c2cccs2)C(C(=O)Nc2ccccc2)=C(C)N1 (stereo unspecified)	-1.7	-0.15
O=C(c1ccc(Cl)cc1)N1N=C(c2ccccc2)CC1(O)C(F)(F)F (stereo unspecified)	.	-0.13
Cn1c(CSc2ccccc2)nc2ccccc21	1.3	.
O=C1c2ccccc2C(=O)N1c1ccccc1	0.75	0.02
C[C@H](CS)C(=O)N1CCC[C@H]1C(=O)O	0.2	-0.035
NC(=O)C1=C(O)C(=O)N(C2CCCCC2)C1	.	0.05
Cc1ccc(-c2nc(Nc3ccccc3)n[nH]2)cc1	-0.6	0.555
Cc1cc(C(=O)OCC(=O)N(C)c2ccccc2)c2ccccc2n1	-0.5	.
CC1CCCC(NC(=O)COC(=O)c2ccc(Br)o2)C1C (stereo unspecified)	1.1	0
CCOC(=O)c1cnc(N2CCc3ccccc3C2)nc1N	-0.75	-3.88*
CC(OC(=O)C1=Cc2ccccc2OC1)C(=O)NCC1CCCO1 (stereo unspecified)	-0.1	.
c1csc(-c2nnc(CSc3cccc4cccnc34)o2)c1	0	41.4
Cc1cc(-c2nnc(-c3ccccc3)c(-c3ccccc3)n2)c(C)o1	-0.3	.
CCN1CCN(CCCNC(=O)c2ccc3nc(/C=C(\O)c4cccc(OC)c4)c(=O)[nH]c3c2)CC1	-0.55	0
O=C1NC(=O)/C(=C\c2ccccc2C(F)(F)F)S1	-0.4	-1.31
CN(C(=O)CSc1c2c(nc3cc(Cl)ccc13)CCCC2)c1ccc(F)cc1	0.85	4.15
OCCn1nc2c3ccccc3nc-2n(-c2ccccc2)c1=S	-0.2	.
CC(=O)N/C(N)=N\c1nc(=O)c2ccccc2s1	3.25	0.23
CCOc1cc(C=C2C(=O)N(C)C(=O)N(C)C2=O)ccc1OCCOc1ccccc1C	.	0.09
CN(CCO)c1nc(-c2ccccc2)c2cc(Br)ccc2n1	1.9	1.48
O=S(=O)(NCc1cccs1)c1ccccc1	.	0.23
Cc1cccc(C(=O)NCc2nnc(SCC(=O)c3ccccc3)n2C)c1	-0.4	-0.065
Cc1nn(-c2ccccc2)c2nc(Cl)c(C=C(C#N)C#N)cc12	-0.1	.
COc1cc(OC)nc(C2CCN(S(=O)(=O)c3cccc(C(F)(F)F)c3)CC2)n1	.	-0.145
CC(C)NC(=O)C1CCN(C(=O)N2CCOc3ccccc32)CC1	0.85	-0.1
O=C(NCCCN1CCOCC1)c1cccnc1SCc1ccccc1Cl	-0.6	0.035
CCOC(=O)C1=C(N)OC2=C(C(=O)CCC2)C1c1cc(Br)c(C)s1 (stereo unspecified)	.	0.04
Cc1nccn1-c1c2c(c(C#N)c3nc4ccccc4n13)CCCC2	-0.45	-1.04
Nc1nc(CSc2nc(N)c3[nH]cnc3n2)cs1	.	-0.56
CC(Oc1ccccc1F)C(=O)N1CCN(C(c2ccccc2)c2ccccc2)CC1 (stereo unspecified)	0.9	0.38
CCN(CC)S(=O)(=O)c1ccc(NC(=O)C2=NN(c3ccccc3)C(=O)CC2)cc1	0.15	.
c1coc(CNc2c(-c3ccc(N4CCCC4)cc3)nc3cnccn23)c1	0.55	.
O=C(CSc1nnc(SCC(=O)NCCc2ccccc2)s1)NCCc1ccccc1	.	0.47
O=C(Nc1cccc(F)c1)c1cc(S(=O)(=O)NCCc2ccccc2)ccc1F	-0.6	-0.19
Cc1ccc2cc3cc(C(=O)NC4CCCCC4)oc3nc2c1	-0.6	20.2
Cc1ccc(Sc2ncccc2-n2cccc2)cc1	.	0.11
NC(=S)/C(=C\c1ccccc1O)C(=O)O	0.5	.
O=C(NC1CCCCC1)/C(=C/C=C\c1ccccc1)NC(=O)c1ccccc1	1.05	0.38
Cc1onc(-c2c(Cl)cccc2Cl)c1C(=O)OC1=CC(=O)CC(C)(C)C1	-0.65	-0.8
CCC(C)(C)NC(=O)Cc1ccc2c(c1)OCCO2	-0.4	.
BrCc1ccc2nsnc2c1	2.45	2.7
C=CCOC(=O)C1=C(C)NC(=O)NC1c1cn(-c2ccccc2)nc1-c1ccc(Cl)cc1 (stereo unspecified)	.	0.125
CCCS(=O)(=O)/C(C#N)=C/c1cc(C(F)(F)F)cc(C(F)(F)F)c1	0.05	-0.28
COc1ccc(S(=O)(=O)Nc2cc(Cl)c3oc(=O)sc3c2)cc1OC	-1.3	-0.17
O=C(CC1c2ccccc2CCN1S(=O)(=O)c1cccs1)OCC(=O)c1ccc(Cl)s1 (stereo unspecified)	0.85	.
c1ccc(Nc2nc(N3CCCCC3)c3ccccc3n2)cc1	-0.9	.

More structures follow.
SMILES	AID504770	CapD inh
O=C(/N=C1/c2ccccc2CN1c1ccccc1)Nc1ccccc1	-0.8	.
Cc1c(Cl)cccc1-n1c(SCc2cc(=O)n3ccccc3n2)nc2n[nH]c(C)c2c1=N	-0.65	73.3
CN(C)CC#Cc1ccc(-c2ccn[nH]2)s1	-0.5	0.225
CCNc1nc2c(c(=O)n(C)c(=O)n2C)n1CC	0	.
O=C(NCC1CCCO1)/C(=C/c1ccccc1)NC(=O)c1ccccc1 (stereo unspecified)	-0.3	0.12
COC(=O)c1sccc1S(=O)(=O)Nc1ccccc1	-0.35	-0.37
COc1cc(S(=O)(=O)N2CCC(n3c(=O)[nH]c4ccccc43)CC2)ccc1-n1cnnn1	0.4	-0.155
CN(C)[C@@H]1C(=O)C(C(N)=O)=C(O)[C@@]2(O)C(=O)C3=C(O)c4c(O)ccc(Cl)c4[C@@H](O)[C@H]3C[C@@H]12	-2.25*	-0.015&0.08
CCOc1ccc2c(C)cc(=O)oc2c1	-0.6	75.7
COCCNc1nc(SCC(=O)Nc2cc(C)on2)nc2ccccc12	.	1.77
O=C(O)C(Oc1ccc2c3c(c(=O)oc2c1)CCCC3)c1ccccc1 (stereo unspecified)	1.05	60
O=C(O)CCOc1ccc2c(c1)OCCO2	-0.25	.
O=C(O)c1cc2nc(-c3ccccc3)cc(-c3ccccc3)n2n1	-0.65	-0.305
CCN(CC)CCSc1nnc(Nc2ccccc2)n1-c1ccccc1	1.9	0.15
COC(=O)c1c(NC(=O)C2CC(=O)NN2C)sc2c1CCC2 (stereo unspecified)	-1	.
Nc1nn(-c2ncnc3c2[nH]c2ccccc23)cc1-c1ccc(Cl)cc1	.	0.56
COC(=O)Cn1c(SC)nc2ccccc21	-1.1	0.19
O=c1oc2ccccc2cc1-c1nnc(-c2ccccc2)o1	.	7.97
O=[N+]([O-])c1ccc(Cl)c(S(=O)(=O)N2CCCN(S(=O)(=O)c3cc([N+](=O)[O-])ccc3Cl)CC2)c1	.	-0.255
CC(=O)Nc1ccc(/C=N/NC(=O)c2ccccc2Oc2ccccc2)cc1	.	4.13
O=C1C(Nc2cccc(O)c2)=C(n2nnc3ccccc32)C(=O)c2ccccc21	-1.25	.
COC(=O)c1ccc(COc2ccc3c(C)cc(=O)oc3c2)o1	1.15	2.56
O=C(CCC(=O)c1ccccc1)c1ccccc1	-0.55	1.45
CCCCCCCCCCCCCCCC[N+](C)(C)CCN(Cc1ccc(OC)cc1)c1ncccn1	.	-0.265
Cn1c(Sc2nc3ccccc3n2C)nc2ccccc21	-1	.
CC(OC(=O)COc1ccc(-c2ccccc2)cc1)C(N)=O (stereo unspecified)	-0.45	.
COC(=O)c1ccccc1NC(=O)c1ccc(=O)n(Cc2ccc(F)c(F)c2)c1	.	0.105
O=C(Nc1ccc2nn(-c3ccccc3)nc2c1)c1ccccc1	2.5	.
C=CCN1C(=O)CC(C(=O)Nc2ccc(Cl)cc2)SC1=Nc1ccc(C(=O)OCC)cc1 (stereo unspecified)	.	-0.475
Cc1ccc(S(=O)(=O)c2cc3ccccc3oc2=O)cc1	-0.4	42.4
COc1ccccc1N1C(=O)NC(=O)/C(=C/c2cn(C(C)=O)c3ccccc23)C1=O	.	-0.465
CN(Cc1cc2ccccc2[nH]c1=O)C(=O)C1CCCCC1	-0.9	.
CC(C)c1cc(NNC(N)=O)cc(C(C)C)c1O	0.8	.
CC1(C)OC(=O)N(c2ccccc2)C12C=Cc1cc3ccccc3cc1O2 (stereo unspecified)	-0.75	-0.12
O=S(=O)(c1ccc(-c2csc(=Nc3cccc(C(F)(F)F)c3)n2CCO)cc1)N1CCCC1	-0.6	-0.09
COC(=O)C1CCCN(C(=O)C2CCCN2S(=O)(=O)c2cccc3nsnc23)C1 (stereo unspecified)	-0.95	.
NS(=O)(=O)c1ccc(C(F)(F)F)cc1Cl	.	-0.415
CC(C)CN(CC(C)C)C(=O)Nc1ccc(F)cc1F	-0.35	0.17
N#Cc1nn(-c2ccccc2)c(=O)n(Cc2ccc(Cl)cc2Cl)c1=O	0.15	-0.58
Cc1ccc(/C=C2\CN(Cc3ccccc3)C/C(=C\c3ccc(C)o3)C2=O)o1	0.4	.
COc1ccc(C2SCCN2S(=O)(=O)c2ccccc2)cc1 (stereo unspecified)	-1.25	0.02

Given field by field: entries from further up.
COc1cccc(Cc2nnc(-c3snnc3C)o2)c1
  AID504770: -0.75
  CapD inh: -0.78
CCOC(=O)N1CCN(C(=O)c2ccc3c(c2)NC(=O)C(CSCc2ccccc2F)N3)CC1 (stereo unspecified)
  AID504770: -0.4
  CapD inh: 16.7
